# Source: PubChem BioAssay
# INS promoter inh = TRM-6 insulin promoter activity inhibition; TRM-6 cells (human fetal islet line), insulin promoter-eGFP reporter, imaging; reporter expression induced with tamoxifen; inhibition, % at 2 µM; hit rate 0.9% among 130,000; AID 1273;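 active = inhibition above the mean plus 3 SD, with well images judged a real hit on visual review, cut at about 60% in these data, passing the limit was not always enough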
# GALR2 ag = activates the human galanin receptor 2; O43603; GALR2-expressing cells, agonist activation read-out; activation, %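 (tested at 5 µM)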; hit rate 0.48% among 140,000; AID 803;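 active = above mean plus 3 SD of all compounds, about 5% in these data, not always enough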;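 note: 0% = vehicle buffer wells and 100% = reference agonist at full effect; tested in CHO reporter cells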
# RGS16-Gao = regulators of human RGS16-Galphao interaction | bead-based flow cytometry RGS16-Galphao binding, fluorescence; actives lie on both sides | O15492+P09471 | binding response (% of control), % at 10 µM | hit rate 0.38% among 220,000;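 active = below 25% or above 175%, edge rows of some plates excepted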;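 note: Galphao activated by GDP with aluminum fluoride before binding; 100% = wells without compound and 0% = beads without RGS; some results beyond the cut were filed as inactive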
# PKD1 inh = inhibitors of human PKD1 kinase | PKD1 kinase fluorescence polarization assay | inhibition, %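 (about 10 µM by stock and volumes)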 | hit rate 0.056% among 200,000 | AID 797;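 active = inhibition of 50% or more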;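 note: controls were vehicle for no effect and a reference inhibitor for full effect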
# Target sequence (Q15139 whole entry, looked up): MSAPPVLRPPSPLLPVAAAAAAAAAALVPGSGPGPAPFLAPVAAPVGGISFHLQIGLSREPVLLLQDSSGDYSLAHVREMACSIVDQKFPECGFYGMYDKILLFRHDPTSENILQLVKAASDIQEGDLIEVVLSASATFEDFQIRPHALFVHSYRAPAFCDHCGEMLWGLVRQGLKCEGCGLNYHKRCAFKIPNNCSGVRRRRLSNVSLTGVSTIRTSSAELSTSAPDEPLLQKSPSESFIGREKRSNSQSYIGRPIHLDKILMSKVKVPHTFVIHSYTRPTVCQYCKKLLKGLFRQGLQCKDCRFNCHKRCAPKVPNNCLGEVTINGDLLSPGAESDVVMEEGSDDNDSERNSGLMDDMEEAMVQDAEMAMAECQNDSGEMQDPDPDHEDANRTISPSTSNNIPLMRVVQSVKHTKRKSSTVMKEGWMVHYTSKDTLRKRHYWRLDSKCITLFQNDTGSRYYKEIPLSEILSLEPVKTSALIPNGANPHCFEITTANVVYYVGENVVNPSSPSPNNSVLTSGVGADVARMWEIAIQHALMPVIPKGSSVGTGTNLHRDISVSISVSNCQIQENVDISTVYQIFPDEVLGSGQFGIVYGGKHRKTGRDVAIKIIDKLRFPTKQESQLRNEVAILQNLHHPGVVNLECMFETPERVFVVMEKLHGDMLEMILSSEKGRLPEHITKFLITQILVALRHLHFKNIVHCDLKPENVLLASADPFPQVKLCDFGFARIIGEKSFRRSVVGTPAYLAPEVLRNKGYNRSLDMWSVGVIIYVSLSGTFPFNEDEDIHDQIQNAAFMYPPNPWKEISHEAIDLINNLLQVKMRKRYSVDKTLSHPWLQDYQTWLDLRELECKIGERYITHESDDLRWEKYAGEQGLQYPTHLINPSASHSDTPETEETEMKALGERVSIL
# HSV augment = HSV replication enhancement; HSV replication augmentation in cells, fold increase; hit rate 0.005% among 220,000; maximum fold increase;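 active = peak rise of 1.5-fold or more in the series; tested in PC3 cells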;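 note: first round at 10 µM; read as green reporter fluorescence; hits show the peak of a series up to 25 µM; 1 = signal of infected wells without compound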
# INS promoter inh cell count = further read-out of INS promoter inh, marked with its call; normalized cell count, %; measured here: cell count, toxicity; reference of the scale not given here;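 cells exposed to compound for 48 h; stained nuclei by imaging scaled within each plate; lower means fewer cells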
# HSV augment primary fold = second read-out of HSV augment, no call of its own (marks repeat the call); fold increase; compound at 10 µM; measured here: primary screen fold increase 10 uM; tested in PC3 cells;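 GFP signal in the first replicate; 1 = infected wells without compound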
# * = called active by the depositor; i = inactive; / = not tested or not shown.
# Every second line gives: INS promoter inh, INS promoter inh cell count, GALR2 ag, RGS16-Gao, PKD1 inh, HSV augment, HSV augment primary fold
COc1ccc(NC(=O)c2ccc(S(=O)(=O)N3CCOCC3)o2)cc1
 : /, /, /, 99, /, i, 1.1
N/C(=N\OC(=O)Cc1ccc(Cl)cc1)c1cccnc1
 : /, /, -2.1, 98, -4, i, 0.98
O=C(NC(N1CCOCC1)C(Cl)(Cl)Cl)c1cc([N+](=O)[O-])cc([N+](=O)[O-])c1 (centres undefined)
 : -43, 94, /, 104, 6, i, 0.94
CCOC(=O)N1CCC(N(CCN(C)C)C(=S)Nc2cc(C)ccc2C)CC1
 : -32, 91, -0.6, 98, 5, i, 0.86
CCC(C)Oc1cccc(C(=O)Nc2ccccc2N2CCOCC2)c1 (centres undefined)
 : 40, 124, -2.4, 103, -1, i, 0.84
CCCN(C(=O)c1ccco1)c1nnc(-c2ccccc2C)s1
 : /, /, /, 106, -4, i, 1
Cc1nc2ccccc2n1CC(=O)NN
 : 60, 89, /, 97, -3, i, 0.97
O=C(NCC1CCCO1)C1CCN(S(=O)(=O)c2ccccc2)CC1 (centres undefined)
 : /, /, /, 98, 2, i, 0.97
COc1ccc(/C=C2\CCc3ccccc3C2=O)cc1CN1CCOCC1
 : /, /, /, 106, /, i, 0.7
CCCc1c(O)nc(SCC(=O)O)[nH]c1=O
 : /, /, /, 109, -9, i, 0.98
CC(Cc1ccccc1)NC(=O)CSc1nc2nc3c(cc2c(=O)n1-c1ccccc1)COC(C)(C)C3 (centres undefined)
 : -51, 93, 0.0, 97, -5, i, 0.93
COC(=O)c1cn(NC(=O)c2ccc(F)cc2)c(=O)c2ccccc12
 : -24, 132, -0.7, 102, -11, i, 1.1
CC1(C)CC(=O)C=C(NC2=CC3OC(c4ccccc4)OCC3OC2=O)C1 (centres undefined)
 : 7, 109, -1.2, 98, -6, i, 0.85
Cc1cccc(C(=O)N2CCC(=O)N(C(COCc3ccccc3)Cc3ccccc3)CC2)c1 (centres undefined)
 : -27, 76, -0.8, 105, 7, i, 1.1
COc1ccc(/C=C/c2nnc(NC(=O)COc3ccc(C)cc3)s2)cc1
 : /, /, 1.5, 98, 5, i, 1.1
CC(C)(C)c1cc(C(F)(F)F)nc(SCCCNC(=O)c2ccco2)n1
 : -31, 177, -0.6, 103, 0, i, 0.94
CCOC(=O)c1nnn(-c2ccc(OC)cc2)c1N
 : 13, 91, 1.2, 82, 0, i, 1
CN(C)c1ccc(/C=N/NC(=O)c2ccc(Cn3cc(Br)cn3)o2)cc1
 : -17, 71, -1.1, 114, 7, i, 0.73
CC(=O)Oc1ccc2occ(/C=N/c3cc(=O)[nH]c(=S)[nH]3)c(=O)c2c1
 : /, /, /, 104, /, i, 1.1
O=C(COc1ccc2ccccc2c1)NNC(=O)c1cccs1
 : /, /, -0.2, 116, -2, i, 0.96
CCCn1c(=O)c2ccccc2n2c(SCCOc3ccc(OC)cc3)nnc12
 : -26, 141, -0.8, 100, -10, i, 1.2
Cn1c(Cc2cccc3ccccc23)nnc1SCc1ccc([N+](=O)[O-])cc1
 : /, /, -2.6, 73, -6, i, 1.1
CCN(CC)NC(=O)Nc1ccccc1
 : 0, 169, /, 102, -13, i, 0.92
O=C(CSc1nnc(-c2ccccc2)n1-c1ccccc1)N1c2ccccc2Sc2ccccc21
 : /, /, -2.4, 98, -24, /, /
C=C(C)Cn1c(CCn2c3ccccc3c3ccccc32)n[nH]c1=S
 : -20, 67, -0.3, 131, -10, i, 1.1
Oc1c(C(Nc2ccccn2)c2ccccn2)ccc2cccnc12 (centres undefined)
 : /, /, -0.7, 91, -6, /, /
CCCCNc1nc2cccnc2s1
 : /, /, /, 98, /, i, 1.1
Cc1cc(NC(=O)/C=C/c2ccc(Cl)cc2)no1
 : 26, 44, 0.4, 127, 5, i, 0.97
COc1cc(-c2nc(CN3CCCCC3CCNC(C)=O)c(C)o2)ccc1F (centres undefined)
 : /, /, /, 100, /, i, 0.9
CCc1cccc2c(C(=O)CSc3nncn3C)c[nH]c12
 : /, /, /, 99, -1, i, 1

# In another format: entries from further up
CCCCNc1nc2cccnc2s1
- INS promoter inh = /
- INS promoter inh cell count = /
- GALR2 ag = /
- RGS16-Gao = 98
- PKD1 inh = /
- HSV augment = i
- HSV augment primary fold = 1.1
CCCn1c(=O)c2ccccc2n2c(SCCOc3ccc(OC)cc3)nnc12
- INS promoter inh = -26
- INS promoter inh cell count = 141
- GALR2 ag = -0.8
- RGS16-Gao = 100
- PKD1 inh = -10
- HSV augment = i
- HSV augment primary fold = 1.2

# Next section:
# Every second line gives: INS promoter inh, INS promoter inh cell count, GALR2 ag, RGS16-Gao, PKD1 inh, HSV augment, HSV augment primary fold
CCN1C(=O)/C(=C\N2CCN(C(=O)c3ccco3)CC2)SC1=S
 : /, /, /, 101, /, i, 0.93
Cc1ccc(CNC(=O)C2CCN(S(=O)(=O)c3ccc4c(c3)OCCCO4)CC2)cc1
 : /, /, -0.9, 98, -2, i, 1.4
COC(=O)c1ccc(CN(c2ccccc2OC)S(=O)(=O)c2cccs2)o1
 : /, /, -2.0, 104, -3, i, 0.93
COc1ccc(-c2csc(N3C(=O)C4C5c6ccccc6C(c6ccccc65)C4C3=O)n2)cc1 (centres undefined)
 : 8, 67, 0.1, 63, -1, i, 1
O=C(NCCCN1CCN(Cc2ccccc2)CC1)C1CCN(c2nnc(-n3cccc3)s2)CC1
 : -65, 122, -0.6, 183, 2, i, 0.98
CCOc1ccc(C2C3=C(CCCC3=O)Nc3ccc4ncccc4c32)cc1 (centres undefined)
 : /, /, /, 94, /, i, 0.97
COc1cccc2c(=O)n(CC(=O)NC3CCCCC3)ccc12
 : /, /, -1.9, 100, -1, i, 0.88
CCNc1nc(NC(C)(C)C)nc(N(CC)n2cnnc2)n1
 : 36, 112, -2.4, 101, 4, i, 0.9
CCCSc1nnc(NC(=O)c2sc3nc(-c4cccs4)ccc3c2N)s1
 : /, /, -3.7, 99, -20, i, 1
Cc1cc(C)c2[nH]c(=O)c(CN(Cc3cccs3)C(=S)NCC3CCCO3)cc2c1 (centres undefined)
 : 8, 130, -0.2, 108, -5, i, 0.84
Cc1cc(S(=O)(=O)NC(C)C)ccc1OCC(=O)Nc1ccc2c(c1)OCCO2
 : /, /, /, 100, 5, i, 1
CCOc1ccc(CCNC(=O)c2cccnc2N2CCCC2)cc1OCC
 : -12, 93, -0.5, 101, -6, i, 1.2
O=S(=O)(Nc1ccc(N2CCCCC2)cc1)c1ccccc1
 : 16, 136, -0.2, 104, -5, i, 1
Cn1c2ccccc2n2c(=O)c(=O)n(CC(=O)N3CCCc4ccccc43)nc12
 : 46, 106, /, 110, -5, i, 1.1
O=C(CSc1nnc(-c2cccnc2)n1Cc1ccco1)N1CCc2ccccc21
 : /, /, -1.6, 99, 6, i, 1
O=C(COC(=O)c1c[nH]c(=O)[nH]c1=O)NCc1ccccc1
 : 5, 112, -2.1, 97, -4, i, 0.97
Cc1[nH]c2ccccc2c1C(=O)CSc1ccccn1
 : /, /, /, 107, 3, i, 1
O=C(COC(=O)Cc1ccccc1F)Nc1cccc(S(=O)(=O)NC2=NCCCCC2)c1
 : -44, 97, /, 99, -4, i, 1
O=C(Nc1ccc2c(c1)nc1n2CCSC1)c1ccco1
 : /, /, -1.1, 98, 2, i, 0.99
c1cncc(-c2nn3c(Cn4cnc5ccccc54)nnc3s2)c1
 : 24, 113, -2.8, 48, -6, i, 1.2
COc1nc(Nc2ccc(O)cc2)nc(OC(C(F)(F)F)C(F)(F)F)n1
 : /, /, -0.9, 104, -7, i, 0.79
Cc1cccc(OCCCC(=O)NCc2ccco2)c1
 : /, /, -4.2, 101, 4, i, 0.95
CCC1CCCCN1C(=O)CSc1nnc(-c2cccs2)o1 (centres undefined)
 : -29, 111, -2.9, 98, -3, i, 0.99
O=C(NCCc1ccc(Cl)cc1)C1CCN(S(=O)(=O)c2cccs2)CC1
 : /, /, -0.6, 98, -3, i, 0.94
CC(C)NS(=O)(=O)c1ccc2c3c(cccc13)CC2
 : /, /, /, 102, 4, i, 1.1
NNC(=O)CNS(=O)(=O)c1ccc([N+](=O)[O-])cc1
 : /, /, /, 118, -8, i, 0.98
COC(c1ccccc1)c1nnc(CCC(=O)NCc2cccc(-n3cccn3)c2)o1 (centres undefined)
 : -48, 100, /, 105, 0, i, 1.3
C=C1N(c2cccc(Cl)c2)C(=O)OC1(C)C
 : /, /, /, 100, -1, i, 1.1
Cc1cc(N2CCC(N(C)C3CCCC3)CC2)nc2cc(O)ccc12
 : /, /, 0.1, 101, -6, i, 0.98
COc1ccc2nc(C)cc(SCC(=O)OC(C)C)c2c1
 : -23, 118, /, 109, 10, i, 0.86

# 5 of the compounds above, as tab-separated lines:
smiles	INS promoter inh	INS promoter inh cell count	GALR2 ag	RGS16-Gao	PKD1 inh	HSV augment	HSV augment primary fold
O=C(COC(=O)Cc1ccccc1F)Nc1cccc(S(=O)(=O)NC2=NCCCCC2)c1	-44	97	/	99	-4	i	1
O=C(Nc1ccc2c(c1)nc1n2CCSC1)c1ccco1	/	/	-1.1	98	2	i	0.99
c1cncc(-c2nn3c(Cn4cnc5ccccc54)nnc3s2)c1	24	113	-2.8	48	-6	i	1.2
COc1nc(Nc2ccc(O)cc2)nc(OC(C(F)(F)F)C(F)(F)F)n1	/	/	-0.9	104	-7	i	0.79
Cc1cccc(OCCCC(=O)NCc2ccco2)c1	/	/	-4.2	101	4	i	0.95

# (cont.)
# Every second line gives: INS promoter inh, INS promoter inh cell count, GALR2 ag, RGS16-Gao, PKD1 inh, HSV augment, HSV augment primary fold
Cc1ccsc1/C=N/N1CCN(Cc2ccccc2)CC1
 : /, /, /, 111, -4, i, 0.86
CC1CCCC(NC(=O)C2CCC(CNc3c(N4CCCCC4)c(=O)c3=O)CC2)C1C (centres undefined)
 : /, /, /, 97, /, i, 0.93
CC1(C)CC2(C)OCCN2C(=S)N1 (centres undefined)
 : /, /, /, 98, /, i, 1
CCCc1c(O)c2ccccc2[nH]c1=O
 : 28, 122, -0.8, 130, -7, i, 0.95
Cn1c(Cn2nnc3ccccc32)nnc1SCC(N)=O
 : /, /, -1.6, 94, -5, i, 0.86
CCOC(=O)N1CCN(C(=O)c2ccc(CS(=O)(=O)c3ccccc3OC)o2)CC1
 : /, /, -1.8, 107, 0, i, 0.96
Cc1cc(C(=O)CSc2nnc(N)s2)c(C)n1CCc1ccc(F)cc1
 : 0, 118, -1.6, 82, 7, i, 1.1
C=CCn1c(SCCC(=O)O)nnc1-c1cccs1
 : 18, 120, -1.9, 99, -10, i, 0.93
O=C(COc1ccccc1)Nc1ccc(CN2CCCCC2)cc1
 : /, /, /, 97, -4, i, 1.1
CCN(c1ccc(OCC(=O)OCC(=O)c2c(N)n(C)c(=O)n(C)c2=O)cc1)S(=O)(=O)c1ccccc1
 : /, /, /, 103, -1, i, 0.99
CCCc1cc(-c2n[nH]c(C(=O)OCC)c2-c2cscn2)c(O)cc1O
 : 34, 108, -2.3, 98, 4, i, 0.92
COc1cc(/C=C/C(=O)OCC(=O)Nc2ccc(S(N)(=O)=O)cc2)ccc1O
 : /, /, /, 94, /, i, 1
COc1cc(/C=N/NC(=O)Cn2cnc3c2c(=O)n(C)c(=O)n3C)ccc1O
 : /, /, /, 98, /, i, 1.3
CCC(CC)c1nnc(NC(=O)c2ccc([N+](=O)[O-])cc2)s1
 : 27, 94, -0.4, 106, -13, i, 0.98
Cc1noc(-c2ccc(C(F)(F)F)cc2)c1NC(=O)Nc1ccc(Cl)cc1
 : /, /, /, 102, /, i, 0.68
CC(=O)C1C(=O)CC(c2ccc(Cl)cc2)CC1=O (centres undefined)
 : /, /, /, 93, /, i, 1.3
CCC(C)(C)n1nnnc1C(c1cc2ccc(OC)cc2[nH]c1=O)N1CCN(C2CCCCC2)CC1 (centres undefined)
 : 33, 84, -1.1, 140, -15, i, 1
CCOc1ccc(CNc2ccc(N3CCCC3)cc2)cc1
 : -31, 105, -1.0, 56, -7, i, 0.78
CC(=O)NC(CCS(C)(=O)=O)C(=O)Nc1cc(C)ccc1C (centres undefined)
 : /, /, -1.3, 102, 7, i, 0.97
N#Cc1ccccc1NC(=O)c1ccccc1OCC(=O)Nc1ccc2c(c1)oc1ccccc12
 : -17, 149, -1.5, /, 13, i, 0.96
CCCc1cc(O)c2c(C)cc(=O)oc2c1
 : 24, 149, -1.3, 101, 1, i, 0.79
COCCn1c(SCC(=O)c2ccc(Cl)cc2)nnc1C(C)C
 : /, /, -2.0, 96, 0, i, 1
Cc1cc(C)c2nc(SCC(=O)NCCN3C(=O)CSC3=O)cc(C)c2c1
 : /, /, -1.1, 100, -13, i, 1
CC1(CC(=O)N/N=C/c2cc([N+](=O)[O-])c(O)cc2O)OCCO1
 : 56, 85, /, 54, 1, i, 0.95

# Not a hit list; 1.3% or so of the library scored in one or more.
